TRPML1 ag = qHTS for Agonists of the Human Mucolipin Transient Receptor Potential 1 (TRPML1); Mucolipin-1 (Homo sapiens), Q9GZU1; TRPML1-expressing cells, Ca2+ dye fluorescence, FDSS; host cell line not named in the record; reference of the full effect not given here; activation, % (no concentration beside the values); 410,000 compounds, 0.12% hits; AID 624414, 2012; in the data active = activation above about 50%; inconclusive = about 30% to 50%; inactive = below about 30%; further: 0% is about no effect; the text of the record puts the active cut at 80%
Target sequence (Q9GZU1 whole entry, looked up): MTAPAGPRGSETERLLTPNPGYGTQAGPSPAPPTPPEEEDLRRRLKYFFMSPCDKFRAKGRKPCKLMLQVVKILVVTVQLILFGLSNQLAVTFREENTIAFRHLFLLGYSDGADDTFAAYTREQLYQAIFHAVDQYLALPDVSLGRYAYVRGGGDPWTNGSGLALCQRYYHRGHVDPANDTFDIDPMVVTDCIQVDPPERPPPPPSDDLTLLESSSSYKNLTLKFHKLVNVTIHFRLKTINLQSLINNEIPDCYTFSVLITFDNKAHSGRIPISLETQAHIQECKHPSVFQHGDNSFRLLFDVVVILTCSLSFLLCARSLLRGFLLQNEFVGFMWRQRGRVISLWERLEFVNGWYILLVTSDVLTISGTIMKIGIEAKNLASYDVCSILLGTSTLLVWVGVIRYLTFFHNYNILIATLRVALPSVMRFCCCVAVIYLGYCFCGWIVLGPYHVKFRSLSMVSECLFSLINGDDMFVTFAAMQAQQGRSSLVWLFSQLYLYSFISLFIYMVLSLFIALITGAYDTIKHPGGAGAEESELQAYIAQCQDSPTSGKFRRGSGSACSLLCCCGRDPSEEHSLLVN
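TRPML1-DL cells, Tet-induced overnight (~16 h, 37 degrees C), loaded 45-90 min at room temperature with Ca8 no-wash calcium dye plus quencher. FDSS fluorescence: 10 s baseline, compound pin-transfer, 110 s agonist read, then EC80 54-4 (4uM final) and 110 s antagonist read.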
Six1-Eya2 blk = qHTS Assay for Inhibitors of the Six1/Eya2 Interaction | Homeobox protein SIX1 (Homo sapiens) + Protein phosphatase EYA2 (Homo sapiens), … | AlphaScreen GST-Six1/His-Eya2 binding, biochemical; hits give low values; control for the full effect not named in the record | activity change, % (no concentration beside the values) | 360,000 compounds, 0.56% hits | AID 651725, 2012; in the data active = activity change below about -65%; inconclusive = about -30% to -65%; inactive = above about -30%; further: on the % scale 0 is the no-effect control and ±100 the full control effect
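AlphaScreen with GST-Six1 and His-Eya2 (5X mix: 250 nM and 500 nM), glutathione donor and nickel acceptor beads; buffer 50 mM Tris pH 8.0, 300 mM NaCl, 1 mM TCEP; 1 h at 37 C in the dark.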
TRPML1 inh = qHTS for Inhibitors of the Human Mucolipin Transient Receptor Potential 1 (TRPML1); 390,000 compounds, 0.02% hits; TRPML1-inducible cells, Ca2+ dye fluorescence, FDSS; hits give low values; inhibition of EC80 agonist-evoked calcium signal; Mucolipin-1 (Homo sapiens), Q9GZU1; activity change, negative = inhibition, % (concentration not given with the values); AID 624415, 2012; in the data active means activity change below about -50%; inconclusive means about -30% to -50%; inactive means above about -30%;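 further: stimulus is agonist 54-4 at its EC80 concentration; on the % scale 0 is the no-effect control and ±100 the full control effect; the text of the record puts the active cut at -80%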
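Calcium fluorescence in TRPML1-DL cells induced overnight with Tet: a 110 s read after compound pin addition, then a 110 s antagonist read after challenge with 54-4 at 4 uM final (EC80).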
D2 ag = Beta-Arrestin HTS for Positive Allosteric Modulators of the Human D2 Dopamine Receptor: Agonists; DiscoveRx PathHunter D2 beta-arrestin, luminescence, 90 min; 100% = 57 uM dopamine signal; AID 624465, 2012; D(2) dopamine receptor (Homo sapiens), P14416; activation, % (concentration not given with the values); 360,000 compounds, 0.084% hits; in the data active = activation above about 40%; inconclusive = about 15% to 40%; inactive = below about 15%; further: the text of the record calls up to 30% inactive
Target sequence (P14416 whole entry, looked up): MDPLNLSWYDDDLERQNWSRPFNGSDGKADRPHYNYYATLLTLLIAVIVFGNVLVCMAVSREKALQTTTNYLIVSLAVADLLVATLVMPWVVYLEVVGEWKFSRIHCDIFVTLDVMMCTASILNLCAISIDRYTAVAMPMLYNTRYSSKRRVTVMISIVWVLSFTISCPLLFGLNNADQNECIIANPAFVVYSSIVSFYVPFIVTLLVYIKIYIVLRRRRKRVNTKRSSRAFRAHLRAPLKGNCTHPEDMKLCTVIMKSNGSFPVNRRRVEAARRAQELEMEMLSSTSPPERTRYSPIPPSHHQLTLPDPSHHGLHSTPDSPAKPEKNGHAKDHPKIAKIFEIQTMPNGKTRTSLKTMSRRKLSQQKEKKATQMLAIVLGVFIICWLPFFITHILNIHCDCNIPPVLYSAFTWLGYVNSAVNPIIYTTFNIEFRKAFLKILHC
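DiscoveRx PathHunter D2 beta-arrestin cells (2,100/well) attached overnight, then compound-stimulated 90 min at 37 C in HBSS/10 mM HEPES/0.1% Tween-20 buffer; beta-galactosidase complementation read by luminescence after 1 h at ambient temperature. Dopamine 57 uM final (EC100) as control.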
CtBP-E1A blk = qHTS Assay for Inhibitors of the CtBP/E1A Interaction; AID 651724, 2012; CtBP / adenovirus E1A interaction (AlphaScreen); 340,000 compounds, 0.49% hits; activity change, % (no concentration beside the values); AlphaScreen GST-E1A/His-CtBP binding, 1536-well; hits give low values; control for the full effect not named in the record; in the data active means activity change below about -65%; inconclusive means about -30% to -65%; inactive means above about -30%; further: on the % scale 0 is the no-effect control and ±100 the full control effect
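AlphaScreen with 125 nM GST-E1A and 125 nM His-CtBP (5X stocks) in Tris pH 8.0, 300 mM NaCl, BSA, Tween 20, TCEP. Compounds preincubated 2 h at 37 deg C, then glutathione donor/nickel acceptor beads added for 1 h at 37 deg C in dark.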
PINK1 modulator = A Quantitative High throughput Screen to Identify Chemical Modulators of PINK1 Expression | Potency, µM (top dose mostly 76.6 µM), inactives show at the highest dose activation (PINK1 increase), usual class: activators | PINK1 immunofluorescence, high-content cytometry, 24 h | 410,000 compounds, 0.2% hits; active = well fitted activation curve with a large enough effect; inconclusive = small, poorly fitted or top-dose-only effect; inactive = flat fitted curve, though single readings scatter; cell line not stated here;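 further: potency means the concentration at half of the fitted maximal effect; % of control where 0% means no effect; nearly all actives have a fitted effect of over 65% in size; a mitochondrial uncoupler was the plate control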
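Fluorescence from anti-PINK1 antibody, together with nuclear and cell stains, was scanned on a laser-scanning cytometer. Before staining, stable-line cells were incubated 24 hours with compounds at 5 concentrations; primary antibody 12 h at 10 degrees C.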
Numbers without * were called inactive; u = inconclusive; x = no result given; [ ] = another dose, or the depositor's remark.

item	canonical_smiles	TRPML1 ag	Six1-Eya2 blk	TRPML1 inh	D2 ag	CtBP-E1A blk	PINK1 modulator
1	O=C(O)c1c(Cl)c(Cl)c(Cl)c(Cl)c1C(=O)N1CCCC1	0.0	-3	13	-1.7	-1	0.0%
2	N#Cc1nc(-c2ccc(COc3ccc(Cl)cc3)o2)oc1N1CCN(c2ccccc2)CC1	0.6	x	8	x	x	-0.3%
3	CCOc1cc(C(=O)N/N=C/c2cn(-c3ccccc3)nc2-c2cc3ccccc3o2)cc(OCC)c1OCC	-0.7	0	-2	-0.9	5	1.0%
4	CCc1nc(C)cn1S(=O)(=O)c1ccc([N+](=O)[O-])cc1	0.2	11	1	1.9	-25	-1.5%
5	O=c1oc2c3c(ccc2c2ccccc12)OCN(Cc1cccc(Cl)c1)C3	-1.0	x	-3	x	x	0.8%
6	NS(=O)(=O)c1ccc(CCNC(=O)CSc2nc3ccsc3c(=O)n2CC(=O)O)cc1	0.4	1	6	-2.9	4	0.7%
7	O=C(COC(=O)c1cccc(NS(=O)(=O)/C=C/c2ccccc2)c1)Nc1ccccc1OC(F)F	3.1	-11	1	-0.7	-11	2.6%
8	Cn1c(CCNC(=O)c2ccccc2)nc2cc(NC(=O)C3CCCCC3)ccc21	0.5	3	-9	1.3	9	u
9	COc1ccccc1NCC(=O)N/N=C/c1c(O)ccc2ccccc12	3.3	-11	-1	-0.7	-21	8.1%
10	O=S(=O)(NNc1cccc(Cl)n1)c1ccc(Cl)cc1	-0.3	-11	31	-24	-16	1.0%
11	COC(=O)[C@]1(Cc2ccccc2)N[C@H](CN(C)C(=O)Nc2ccccc2)[C@@H]2C(=O)N(Cc3ccccc3)C(=O)[C@@H]21	1.8	11	-11	-1.5	7	0.3%
12	CCOC(=O)C1=C(CN2CCN(C(=O)c3ccco3)CC2)NC(=O)NC1c1ccc(OC)cc1 (configuration not stated)	0.0	-1	-4	2.3	x	1.1%
13	COc1ccc(COc2cc(-c3cccc(OC)c3)nc3ccc(NC(=O)c4cccnc4)cc23)cc1	0.9	-26	-4	u	-3	9.9%
14	COC(=O)CSc1nnc(NC(=O)c2ccc3c(c2)OCO3)s1	-0.1	1	25	-2.9	6	0.2%
15	COc1cccc(CNc2cc(C)nc3nc(-c4ccc(C)cc4)nn23)c1	1.5	x	-7	x	x	6.5%
16	Nc1cc(=O)nc(SCC(=O)N2CCN(c3ccccc3)CC2)n1-c1ccc(F)cc1	0.7	0	-7	0.3	0	-0.2%
17	CCOC(=O)C1CCCC12Nc1cccc3cccc(c13)N2 (configuration not stated)	-0.6	-9	0	14	-7	0.0%
18	S=c1[nH]nc(COc2cccc3ccccc23)n1Cc1ccccc1	-1.1	14	-8	1.8	-2	4.0%
19	CCOC(=O)c1cc(-c2ccc(C)cc2)n(CCC(=O)Nc2cc(Cl)ccc2C)c1C	-1.4	x	14	x	x	2.3%
20	C(=C\c1nc(-c2cccnc2)no1)/c1ccccc1	-1.0	2	-15	-6.2	1	1.0%
21	CCOC(=O)/C=C1\SCC(=O)N1CC(=O)NC1CCCCC1	0.4	-2	1	-3.6	-5	-2.6%[38.3 µM]
22	C/C=C/c1ccc(OCCSc2nc(C)cc(=O)[nH]2)c(OC)c1	3.3	u	-12	1.1	u	u
23	O=C1N(CC(=O)N2CCc3ccccc32)CCN1Cc1ccccc1Cl	0.5	1	-12	-2.9	-1	1.9%
24	O=C(COC(=O)CCCN=C1NS(=O)(=O)c2ccccc21)NNC(=O)c1ccccc1	0.1	0	-3	-7.3	12	2.7%
25	C=CCN(CC(=O)O)S(=O)(=O)c1ccccc1C(F)(F)F	-1.0	12	23	-6.2	-5	0.2%

The last four records of the part before come first, to join the parts.
item	canonical_smiles	TRPML1 ag	Six1-Eya2 blk	TRPML1 inh	D2 ag	CtBP-E1A blk	PINK1 modulator
22	C/C=C/c1ccc(OCCSc2nc(C)cc(=O)[nH]2)c(OC)c1	3.3	u	-12	1.1	u	u
23	O=C1N(CC(=O)N2CCc3ccccc32)CCN1Cc1ccccc1Cl	0.5	1	-12	-2.9	-1	1.9%
24	O=C(COC(=O)CCCN=C1NS(=O)(=O)c2ccccc21)NNC(=O)c1ccccc1	0.1	0	-3	-7.3	12	2.7%
25	C=CCN(CC(=O)O)S(=O)(=O)c1ccccc1C(F)(F)F	-1.0	12	23	-6.2	-5	0.2%
26	N#C/C(=N\Nc1ccccc1F)C(=N)N1CCCCC1	-0.4	-4	-8	-0.3	-11	1.0%
27	O=C(COC(=O)Cn1cnc2ccccc21)Nc1ccc2c(c1)OCCO2	0.4	1	0	-1.9	8	-0.6%
28	COc1cccc(NC(=O)CN(C)C(=O)C2CCN(C(=O)c3ccccc3C)CC2)c1	0.5	-1	74	0.0	8	-0.9%
29	O=C(COC(=O)c1ccc([N+](=O)[O-])cc1Cl)NCc1ccco1	-0.2	-3	-8	7.6	4	-2.1%
30	CCOC(=O)N1CCN(C(=O)CN(c2ccc(OC)c(OC)c2)S(C)(=O)=O)CC1	0.1	8	-14	-1.8	2	u
31	CN(Cc1ccccc1)S(=O)(=O)c1ccc(Cl)c(C(=O)O)c1	-0.5	11	2	-0.8	-19	0.5%
32	O=C(CCCSc1nc2ccccc2[nH]1)NCc1ccco1	5.0	0	-6	-0.5	5	-2.8%
33	CN(C)c1ccc(CNC(=O)Cc2ccc(NC(=O)N3CCCCc4ccccc43)cc2)cc1	-0.4	x	22	x	x	0.6%
34	O=C(O)c1ccc2c(c1)CCC2	0.9	-3	-3	-4.4	8	0.6%
35	COC(=O)c1cccc(NC(=O)CCCOc2cccc(C)c2)c1	1.4	-1	-8	1.1	7	0.3%
36	O=C(NCc1cccs1)C1CC1	-1.4	3	3	-4.5	-8	2.3%
37	COc1ccc(NC(=O)CSc2ccc3ccccc3c2)cc1S(=O)(=O)N1CCCCC1	0.6	-1	24	7.8	-3	-1.4%
38	Cc1ccc(CNC(=O)CSc2nccn(-c3ccc(C)c(F)c3)c2=O)cc1	-0.1	-6	28	-3.1	11	3.6%
39	CCCc1c(C)c(C#N)c2nc3ccccc3n2c1NCCCN1CCOCC1	0.3	-1	10	-4.3	5	-1.3%
40	CCOC(=O)C1CCCN(CC(=O)Nc2c(C(=O)OC)[nH]c3ccc(C)cc23)C1 (configuration not stated)	0.8	-2	-28	-2.8	-7	-1.1%
41	COc1ccc(CCC(=O)OCC(=O)NCc2ccc(OC)c(OC)c2)cc1OC	0.2	4	-2	0.8	3	-0.3%
42	COc1ccc(N2CCN(c3oc(/C=C/c4ccc(F)cc4)nc3C#N)CC2)cc1	0.3	x	5	x	x	0.3%
43	CC(NC(=O)c1ccco1)C(=O)N1CCN(c2cccc(C(F)(F)F)c2)CC1 (configuration not stated)	-0.2	-1	10	-4.7	4	4.2%
44	CCOC(=O)c1ccc(NC(=O)N2CCN(Cc3ccccc3)CC2)cc1	0.3	2	-1	7.6	-1	-1.8%
45	O=C(OCn1nnc2ccccc2c1=O)C1=COCCO1	0.2	2	6	-4.7	4	-3.5%
46	CC(=O)c1ccccc1NC(=O)c1cc(S(=O)(=O)N2CCOCC2)ccc1N1CCCC1	-1.4	-4	17	-2.7	x	0.3%
47	O=C(CN1C(=O)NC2(CCCC2)C1=O)NCc1ccco1	1.4	5	17	-0.2	3	3.0%
48	O=C(COC(=O)COc1ccccc1F)Nc1ccc2c(c1)OCO2	-0.3	3	-10	-1.2	x	-0.7%
49	O=C(/C=C/c1cccc(Cl)c1)NCCc1ccccc1	1.2	12	-13	0.6	1	-0.9%
50	COc1ccc(CNS(=O)(=O)c2cc(CN3C(=O)c4cccnc4C3=O)ccc2OC)cc1	0.1	-1	3	-2.2	-4	-0.6%
51	COC(=O)[C@@H]1[C@@H](C)N(Cc2ccccc2)C(=O)N[C@H]1c1cccc(C(F)(F)F)c1	-0.2	0	7	-2.2	0	2.6%
52	Cc1c(C(=O)N2CCCCC2)c(S(=O)(=O)Nc2ccc(F)cc2F)c(C)n1C	-0.7	1	-3	-3.5	1	0.2%
53	CCOC(=O)C1CCCN(C(=O)Cn2ncc3c4ccccc4n(Cc4ccccc4)c3c2=O)C1 (configuration not stated)	4.8	x	-13	x	x	2.4%
54	COCc1cc(CNC(=O)C2CCC(=O)N(Cc3ccccc3F)C2)[nH]n1 (configuration not stated)	0.2	14	20	-3.1	-6	0.0%
55	Cc1ccc(-c2nc3ccc(Cl)cn3c2Cc2ccsc2)cc1	0.9	-4	-7	-4.0	-3	1.3%
56	O=C(NCCN1CCOCC1)c1cccc(Br)c1	0.9	0	0	1.7	7	0.3%
57	Cc1c(C(=O)NCc2ccccc2Br)oc2ccc3c(c12)C(=O)CC(C)(C)O3	1.2	x	25	x	x	1.1%
58	CN1CCN(S(=O)(=O)c2cccc(C(=O)NC3CCCC3)c2)CC1	0.5	5	-4	-1.6	-21	-0.1%
59	Cc1cc(F)ccc1N1CCC(N2CCN(C)C(CCO)C2)CC1 (configuration not stated)	0.1	18	-8	-4.8	14	-0.7%
60	COCCN1C(=O)N[C@@H](c2ccccc2)C(C(=O)OC)=C1C	-0.1	0	3	-3.7	2	2.2%
61	COc1cc(CC(=O)OCC(=O)NCc2ccco2)cc(OC)c1OC	-0.3	-2	1	-1.2	11	-1.6%
